Vaccinia Venus – inhibitors of vaccinia virus (Venus reporter); Vaccinia virus Venus reporter expression, fluorescence; Potency, µM (highest dose often 36.5 µM), without a hit: top-dose activity change, negative = inhibition, hits mostly inhibitors; actives 0.46% (n = 330,000); AID 720580; active means well fitted inhibition curve with a large enough effect; inconclusive means small, poorly fitted or top-dose-only effect; inactive means no such curve, though single readings can be large or run the other way; tested in A549 cells; further: nearly all actives have a fitted effect of over 30% in size; inactives centre near -10
VACV mCherry inh – inhibitors of vaccinia virus infection (mCherry reporter signal); Vaccinia virus mCherry reporter infection, fluorescence; about a quarter of the inactives have no number; Potency, µM (top dose mostly 36.5 µM), without a hit: top-dose activity change, negative = inhibition, actives largely listed as inhibitors; actives 0.63% (n = 310,000); AID 720579; active = well fitted inhibition curve with a large enough effect; inconclusive = small, poorly fitted or top-dose-only effect; inactive = no such curve, though single readings can be large or run the other way; tested in A549 cells; further: nearly all actives have a fitted effect of over 35% in size; inactives centre near -10
* = called active by the depositor; i = inactive; ? = inconclusive; . = no result given; & = joins results of further samples; [ ] = dose if it differs, or a comment. On the % scale 0 is the no-effect control and ±100 the full control effect; potency means the concentration at half of the fitted maximal effect.

Start of the data: the first two entries, to show the layout:
canonical_smiles	Vaccinia Venus	VACV mCherry inh
COc1ccc(C(c2nnnn2Cc2ccccc2)N2CCN(C/C=C/c3ccccc3)CC2)cc1 (stereo not drawn)	-6.4%	-2.1%
O=C(COC(=O)c1ccccc1C(=O)c1ccc(Cl)c([N+](=O)[O-])c1)NC1CC1	10µM*	?

The list itself, from the first entry:
canonical_smiles	Vaccinia Venus	VACV mCherry inh
COc1ccc(C(c2nnnn2Cc2ccccc2)N2CCN(C/C=C/c3ccccc3)CC2)cc1 (stereo not drawn)	-6.4%	-2.1%
O=C(COC(=O)c1ccccc1C(=O)c1ccc(Cl)c([N+](=O)[O-])c1)NC1CC1	10µM*	?
CC(C)=CCC/C(C)=C/CC/C(C)=C/CO	-8.4%&0.0%	-12.3%
CC(C)C(OC(=O)c1ccccc1)c1nccc2ccccc12 (stereo not drawn)	-18.7%	-19.0%
Cc1ccccc1OCCn1c(S(=O)(=O)O)nc2c(N)ncnc21	-2.3%	-13.9%
CCOc1ccc(/C=C2\SC(=S)N(CCC(=O)O)C2=O)cc1	-12.0%	-13.1%
Cc1[nH]n(-c2ccccc2)c(=O)c1/C=N/N1C(=O)c2ccc3c4c(ccc(c24)C1=O)CC3	-13.5%	-11.5%
Cn1cnnc1SCC(=O)Nc1ccccc1Sc1ccccc1	-6.9%	.
CCN(CC(=O)Nc1c(Cl)cccc1Cl)C(=O)C1CCN(c2ncnc3sc(C)c(C)c23)CC1	-22.9%	-10.7%
CN(c1ccccc1)S(=O)(=O)c1cccc(C(=O)Nc2nccs2)c1	-25.3%	5.7%
CN(C)c1ccc(C#Cc2ccc3cc(CCCO)oc(=O)c3c2)cc1	-22.9%	?
Clc1ccc(C2Nc3cccc4cccc(c34)N2)cc1	0.6%	?
CCN(CC(=O)Nc1ccc2c(c1)OCCO2)C(=O)c1ccc(Cl)cc1Cl	-12.7%	-22.6%
CC(C)c1ccc(C(CC(=O)c2ccc(Cl)cc2)C(=O)O)cc1 (stereo not drawn)	-23.5%	-13.1%
O=C(OCC(=O)N(Cc1ccccc1)Cc1ccccc1)c1cccc(O)c1	-4.0%	-4.8%
Nc1nc(C2CCCN2S(=O)(=O)c2ccc(Cl)cc2)cs1 (stereo not drawn)	-3.9%	-7.5%
Cc1ccc(NC(=O)C2CCN(S(=O)(=O)c3c(C)noc3C)CC2)cc1	-3.3%	-7.4%
CC(=O)N1c2ccccc2CC1C(=O)N1CCN(c2ccccc2F)CC1 (stereo not drawn)	-1.7%	-9.2%
COc1cccc(Nc2nc(C(N)Cc3ccc(F)cc3)cs2)n1 (stereo not drawn)	?	?
Cc1cc(C(F)(F)F)nc(-n2cc(-c3cccc(N)c3)nn2)n1	-4.2%	i
Cc1sc2nc(-c3ccccn3)[nH]c(=O)c2c1-c1ccccc1	-9.2%	?
COc1ccc(CNC(=O)c2cc(-c3ccncc3)nc3c(C)cc(C)cc23)cc1OC	-27.9%	-28.6%
COc1ccc(CCNC(=O)CCS(=O)(=O)c2ccc3nc(C)sc3c2)cc1OC	-23.9%	-9.4%
Clc1cccc(Cl)c1CSc1nnc(-c2ccncc2)s1	-5.9%[7.34 µM]	i[7.34 µM]
Cn1cccc1C(=O)NCc1ccc(S(N)(=O)=O)cc1	-4.1%	i
O=C(COC(=O)COc1cccc(C(F)(F)F)c1)NC(=O)NC1CCCCC1	-17.3%	i
COc1ccc(COC(=O)CN2C(=O)NC3(CCCC3)C2=O)cc1F	-13.3%	i
CCSc1ncc(Cl)c(C(=O)Nc2ccc(S(=O)(=O)N3CCCCC3)cc2)n1	?	?
CCCCN(CC)C(=O)Cn1c(=O)n(-c2ccc(OCC)cc2)c(=O)c2c3c(sc21)CCC3	-8.8%	-16.5%
O=C(O)c1cc(Cl)c(Cl)cc1C(=O)Nc1cccc2ncccc12	-7.9%	i
COCCNC(=O)C(c1ccc(C)cc1)N(Cc1ccccc1)C(=O)CCC(=O)Nc1ccccn1 (stereo not drawn)	-3.9%	-6.8%
C/C(=N\NC(=O)c1ccc(Cl)c(Cl)c1)c1cccc(NC(=O)C(C)C)c1	0.4%	-7.0%
O=C(CC[C@H]1O[C@@H](n2cnc3c(NC(=O)c4ccccc4)ncnc32)[C@H](O)[C@@H]1O)NCC1CCN(Cc2ccccc2)CC1	1.2%	29.6%
Cc1cc(C(=O)OCn2nnc3ccccc3c2=O)c(C)n1-c1ccccc1	-14.6%	.
Cc1ccccc1NC(=O)COc1coc(CN2CCN(c3ccccc3)CC2)cc1=O	-12.9%	i
Cc1ccc(-c2ccc(/C=N\NC(=O)C3C(=O)NCC3c3ccccc3)o2)cc1Cl (stereo not drawn)	?	?
Cc1ccc(O)c(-c2cc(-c3cccc(Br)c3)n[nH]2)c1	-19.9%	-18.3%
CCOc1ccccc1NC(=O)C(NS(=O)(=O)c1ccc2c(c1)CCC(=O)N2)c1ccccc1 (stereo not drawn)	-11.6%	-11.5%
CC(=O)NC(=S)Nc1ccccc1N1CCCCC1	-16.0%	-13.1%
CCCOc1ccc(NC(=O)C(=O)NCCCn2ccnc2)cc1	-14.4%	-2.4%
O=C(CSc1nnc(CNC(=O)c2ccc(F)cc2)o1)Nc1ccc2c(c1)OCCO2	-4.9%	-26.1%
CC(=O)Nc1ccc(-c2csc(NC=C3C(=O)OC(C)(C)OC3=O)n2)cc1	4.47µM*	?
N#C/C(=N\Nc1ccc(Cl)c(Cl)c1)C(=O)C1CC1	?	-28.6%
Cc1noc(NS(=O)(=O)c2ccc(NC(=O)C(C)(C)C)cc2)c1C	-9.2%	-6.1%
Cc1cccc(NS(=O)(=O)c2cccc(C(=O)N3CCN(c4ccccn4)CC3)c2)c1	-23.7%	-17.7%
Cc1ccc(-c2n[nH]c(=S)n2C)cc1	6.2%	-20.5%
Cc1ccc(/C=C/c2onc(C)c2S(=O)(=O)N2CCC(C(=O)NCc3ccc(C)o3)CC2)cc1	-7.3%[7.34 µM]	-12.8%[7.34 µM]
COc1ccc(C)cc1NC(=O)CN(C)S(=O)(=O)c1ccc2c(c1)CCCN2C(C)=O	-7.4%	4.7%
Cn1ncc2c(NCCO)nc(Cl)nc21	-8.2%	i
Cc1cccc(CCN2C(N(C)C)=NC[C@@H]2Cc2ccccc2)c1	?	?

Later entries
canonical_smiles	Vaccinia Venus	VACV mCherry inh
C[C@H](CO)N1C[C@H](C)[C@@H](CN(C)C(=O)Nc2ccc(C(F)(F)F)cc2)Oc2ccc(NS(=O)(=O)c3ccc(F)cc3)cc2C1=O	-15.9%	-2.2%
O=C(CSc1ccc(Br)cc1)NC1CCS(=O)(=O)C1 (stereo not drawn)	-5.4%	i
CCOc1cccc(NC(=O)CSc2ncc(-c3ccc(Cl)cc3)[nH]2)c1	-12.4%	-12.8%
COc1ccc(OC)c(/C=C/C(=O)OCC(=O)N2CCN(S(=O)(=O)c3ccc(C)cc3C)CC2)c1	-10.2%	i
Cc1ccc(C2C(=O)N(C3CCC(C)CC3)CC(=O)N2C2CCCC2)cc1 (stereo not drawn)	-2.6%	1.1%
CCC(=Nc1ccc(OC)cc1OC)c1c(O)[nH]c(=O)[nH]c1=O	-11.0%	-13.3%
O=C1CC(c2ccco2)Cc2[nH]c(=O)c(C(=O)Nc3ccccc3)cc21 (stereo not drawn)	-25.9%	-19.3%
CCOc1ccc(CNC(=O)c2ccco2)cc1	1.2%	-5.9%
CNCC[C@@H](Oc1ccc(C(F)(F)F)cc1)c1ccccc1	-12.3%	-0.1%
CCOC(=O)C1CCCN(CC(=O)Nc2c(C(=O)OC)[nH]c3ccc(Cl)cc23)C1 (stereo not drawn)	-12.3%	-14.5%
O=C(NCc1ccco1)c1cc(-c2ccccc2)on1	-16.7%	-4.7%
CC(=O)N1[C@H](Cc2ccccc2)C=C[C@]1(C)C(=O)NCCc1c[nH]c2ccccc12	-25.9%	-13.2%
CC(C(=O)O)n1cc(Cl)cn1 (stereo not drawn)	-7.1%	5.7%
COc1ccc(C(=O)Nc2cc(S(=O)(=O)N3CCCCC3)ccc2C)cc1	-17.4%	-24.2%
Cc1nc2ccccc2c(=O)n1-c1cccc(C(F)(F)F)c1	-7.9%	-19.7%
O=C(OCC(=O)N1N=C(c2ccc(Cl)cc2)CC1c1ccco1)c1ccccc1O (stereo not drawn)	-25.6%	?
CCN1C(=O)[C@H]2[C@H]3CN=C(SC)N3[C@@](Cc3ccccc3)(C(=O)OC)[C@H]2C1=O	9.4%	i
CCCS(=O)(=O)NC(=O)C1(C)CCN(C(=O)c2c(F)cccc2F)C1 (stereo not drawn)	4.9%	i
O=S(=O)(c1ccc(N2CCCC2)nc1)N1CCCC1	-5.9%	-11.0%
C[C@H](NC(=O)N1CCn2c1nc1ccccc12)C(=O)NCc1ccco1	-14.4%	-2.5%
Cc1cccc(NS(=O)(=O)c2ccc3c(c2)CCN3C(=O)CCC(=O)O)c1C	1.3%	-4.8%
CC1(C(=O)O)C=CCN1C(=O)c1ccccc1 (stereo not drawn)	-13.3%	-12.5%
CCOc1ccc(CCNC(=O)C2=C(C)C(=O)OC23CCC(C)CC3)cc1OCC (stereo not drawn)	-9.5%	-11.0%
CCOCCCNC(=O)Cn1nc(-c2ccccc2)ccc1=O	-8.2%	i
COc1cc(C=C(OC(C)=O)c2ccc3c(c2)OCO3)cc(OC)c1OC	-4.3%	12.3%
CC(=O)c1cc(C#N)c(SCc2ccccc2)nc1C	-8.8%	-19.8%[1.46 µM]
N#Cc1nc(Cc2ccccc2)oc1N1CCCC1	-12.7%	i
COc1cccc(CNC(=O)c2cc(COc3c(F)cccc3F)on2)c1	-15.7%	-7.3%
Cc1ccc(NC(=O)C2CCN(c3nn4cc(-c5ccc(C)cc5)nc4s3)CC2)cc1	-2.3%	-3.8%
COc1ccc(CNS(=O)(=O)c2ccc(-n3cnnn3)c(OC)c2)cc1	-4.0%	-3.8%
O=C(CN1CCN(S(=O)(=O)N2CCCCCC2)CC1)Nc1cc(Cl)ccc1Cl	1.2%	18.0%
CCOC(=O)C1CCCN(S(=O)(=O)c2ccc3c(c2)oc(=O)n3C)C1 (stereo not drawn)	-2.0%	4.1%
CS(=O)(=O)NN1C(=O)c2ccccc2NC1c1ccccc1O (stereo not drawn)	-3.6%	-6.0%
COc1cccc(CN2CCN(C(=O)c3cccc4ccccc34)CC2)c1OC	-14.2%	i
O=C(COc1ccc(-n2ccnc2)cc1)Nc1cccc(Cl)c1	-6.8%	i
CCOC(=O)C1=C(N)n2c(s/c(=C\c3ccco3)c2=O)=C(C(=O)OC(C)C)C1c1ccco1 (stereo not drawn)	-13.6%	i
CCN1CCN(CC(=O)NC2CCCCC2)C(=O)C1=O	-18.2%	i
O=C(NC[C@@H]1CCCO1)c1cccc2c1C(=O)c1ccc(N3CCOCC3)cc1S2(=O)=O	-5.0%	-8.6%
Cc1ccc(C(=O)Nc2ccccc2C(=O)N2CCCCC2C)cc1 (stereo not drawn)	-17.1%	i
NS(=O)(=O)c1ccc(Sc2ccc3ccccc3c2)nc1	-25.0%	-12.6%
CN(CC(=O)Nc1ccccc1Br)C(=O)CNC(=O)c1ccc2c(c1)OCO2	1.0%	-6.5%
Cc1ccc(NC(=O)c2cccc(S(=O)(=O)N(C)c3ccccc3)c2)cc1S(=O)(=O)N1CCOCC1	-28.3%	?
O=C(Nc1cccc(C(F)(F)F)c1)C1C2CC3OC(=O)C1C3C2 (stereo not drawn)	-3.7%	.
CCn1cc(SCC(=O)N2CCOCC2)c2ccccc21	-14.2%	14.0%
Cc1cc(C(=O)N2CCN(c3ccccc3F)CC2)c2c(C)nn(-c3ccccc3)c2n1	-3.0%	-7.7%
Cc1cc(NC(=O)C2CCCN(S(=O)(=O)c3c(C)noc3C)C2)n[nH]1 (stereo not drawn)	11.8%	-5.2%
Clc1ccc2c(c1)[C@H]1OCC[C@H]1[C@@H](c1ccco1)N2	-13.2%	-15.5%
COc1cc(-c2cc(C(=O)O)c3cc4c(cc3n2)OCCO4)cc(OC)c1OC	-14.3%	i
Nc1c(-c2nc(-c3ccncc3)no2)nnn1CC(=O)Nc1ccccc1	-12.6%	-12.1%
CCCCOc1ccc(S(=O)(=O)NC(=O)C2(C)CCN2C(=O)c2cccc(F)c2)cc1 (stereo not drawn)	-3.1%	i

Later entries
canonical_smiles	Vaccinia Venus	VACV mCherry inh
COc1ccc(-c2csc(N(CCCN(C)C)C(=O)c3ccccc3C)n2)cc1	?	?
COc1ccccc1NC(=O)c1cc(Br)ccc1Cl	-1.2%	-7.7%
CN(C)c1ncnc2c1ncn2C1CCCO1 (stereo not drawn)	8.8%	-5.3%
CCC(=O)NNC(=O)Cc1c(C)n(C(=O)c2ccc(Cl)cc2)c2ccc(OC)cc12	0.5%	-8.5%
CCC(=O)N1CCc2cc(S(=O)(=O)CCC(=O)NCc3ccccc3Cl)ccc21	1.3%	2.3%
CCCCN(CCCC)Cc1ccc(C(=O)NNC(=O)Nc2ccc(F)cc2)o1	-8.2%	?
CCOC(=O)N1CCC(NS(=O)(=O)c2cc3c(cc2Br)CCN3C(=O)CC)CC1	-8.9%	-17.6%
O=C(CSc1ncnc2nc[nH]c12)N1CCOCC1	-1.2%	-6.8%
COC(=O)c1ccc2c(=O)n(CCCCCC(=O)N3CCN(c4cccc(C)c4C)CC3)c(=O)[nH]c2c1	-14.4%	i
Oc1ccc2c(c1)oc1cc(O)ccc12	?	10µM*
